Source: PubChem BioAssay (National Center for Advancing Translational Sciences (NCATS))
Cruzain Triton – qHTS Assay for Promiscuous and Specific Inhibitors of Cruzain (with detergent) | Potency, µM, without a hit: max response, negative = inhibition, actives largely listed as inhibitors | purified cruzain, Z-FR-AMC fluorescence, 0.01% Triton | 200,000 tested, 0.43% active | AID 1478, 2009; active = well fitted curve in the direction sought with a large enough effect; inconclusive = small, poorly fitted or top-dose-only effect, or another doubt; inactive = no such curve, though single readings can be large; an effect the other way counts as inactive or inconclusive;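 also: plate controls were neutral wells for no effect and buffer without enzyme for full effect; nearly all actives have a fitted effect of over 40% in size; top concentration of the series not given in the record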
Target sequence (P25779 123-467 limits assumed): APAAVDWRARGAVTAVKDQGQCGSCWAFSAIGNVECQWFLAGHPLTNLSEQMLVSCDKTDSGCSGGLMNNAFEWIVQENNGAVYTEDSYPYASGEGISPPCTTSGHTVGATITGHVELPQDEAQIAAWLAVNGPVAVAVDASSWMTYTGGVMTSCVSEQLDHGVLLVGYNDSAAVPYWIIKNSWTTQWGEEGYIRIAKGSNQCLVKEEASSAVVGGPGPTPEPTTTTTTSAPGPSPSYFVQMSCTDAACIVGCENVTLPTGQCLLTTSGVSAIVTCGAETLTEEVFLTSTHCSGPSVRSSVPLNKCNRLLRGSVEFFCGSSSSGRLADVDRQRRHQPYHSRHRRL
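Enzyme 1.5 nM, Z-FR-AMC 2 uM, NaOAc 100 mM pH 5.5, DTT 5 mM, Triton X-100 0.01%; 15 min RT compound preincubation; kinetic ex360/em450, 60 s delta.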
SARS PLpro yeast – qHTS of Yeast-based Assay for SARS-CoV PLP; Potency, µM (highest dose often 32.9 µM), inactives show at the highest dose activity, positive = growth rescue; S. cerevisiae expressing SARS-CoV PLpro, growth rescue; control for the full effect not named in the record; 330,000 tested, 0.19% active; also: 0% is about no effect; nearly all actives have a fitted effect of over 55% in size; growth read by luminescence after 48 h
Cruzain inh noDet – qHTS Assay for Promiscuous and Specific Inhibitors of Cruzain (without detergent). purified cruzain, Z-FR-AMC fluorescence, no detergent. Potency, µM, inactives show max response, negative = inhibition, most hits filed as inhibitors. 200,000 tested, 2.3% active. AID 1476, 2009; active = well fitted curve in the direction sought with a large enough effect; inconclusive = small, poorly fitted or top-dose-only effect, or another doubt; inactive = no such curve, though single readings can be large; an effect the other way counts as inactive or inconclusive;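 also: plate controls were enzyme without inhibitor for no effect and buffer without enzyme for full effect; nearly all actives have a fitted effect of over 40% in size; top concentration of the series not given in the record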
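Purified cruzain at 1.5 nM, pre-incubated 15 min with compound at room temperature in 100 mM sodium acetate pH 5.5, 5 mM DTT, 0.00005% Triton X-100. Reaction started with 2 uM Z-FR-AMC; AMC fluorescence increase over 60 s gives rate.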
RE007 growth inh – qHTS Assay for Inhibitors of the HIV-1 protein Vpr. AID 651644, 2012. 360,000 tested, 0.21% active. Potency, µM (top dose mostly 92.2 µM), inactives show top-dose activity change, negative = less growth. S. pombe RE007 Vpr strain, BacTiter-Glo ATP luminescence, 24 h; control for the full effect not named in the record; active = well fitted falling curve with a large enough effect; inconclusive = small, poorly fitted or top-dose-only effect; inactive = no such curve, though single readings can be large or run the other way;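 also: % is scaled to controls: 0 for no effect and ±100 for the full control effect; nearly all actives have a fitted effect of over 50% in size; the assay follows cell death caused by Vpr and the record does not say whether a fall means rescue or toxicity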
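Fission yeast RE007 carrying one integrated HIV-1 vpr copy, seeded at OD 0.01 in PMG+AL medium with 23 nL pinned compound. Grown 24 h at 30 degrees; viability read by BacTiter-Glo luminescence after 5 min.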
NS1 inh – qHTS Assay for Inhibitors of Influenza NS1 Protein Function; S. cerevisiae slowed by influenza A NS1, growth recovery by OD600; Potency, µM (doses to about 46.1 µM), inactives show at the top dose activity, positive = more growth; 270,000 tested, 0.4% active; also: actives are rising curves; nearly all actives have a fitted effect of over 50% in size
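OD600 was taken as the measure of yeast growth restored by compound in an NS1-expressing S. cerevisiae strain. Cells had been washed out of glucose medium and diluted 1:100 into galactose -URA medium, pH 6.0.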
Marburg entry inh – qHTS for inhibitors of binding or entry into cells for Marburg Virus | Potency, µM (top dose mostly 37.8 µM), for the others: top-dose activity change, negative = inhibition, hits mostly inhibitors | 300,000 tested, 1.8% active | Marburg virus pseudotyped entry inhibition, cell reporter; control for the full effect not named in the record; about a third of the inactives were read at about 46 µM; active = well fitted inhibition curve with a large enough effect; inconclusive = small, poorly fitted or top-dose-only effect, or effect the other way; inactive = flat fitted curve, though single readings scatter; tested in HEK293 cells; about a fifth of its hits are not listed in these tables; also: % is scaled to controls: 0 for no effect and ±100 for the full control effect; luciferase read-out
StopGo reporter – High Throughput Screening for Foot and Mouth Disease Virus Antivirals; human cells with a luciferase reporter of 2A StopGo recoding; control for the full effect not named in the record; Potency, µM (series often up to 57.9 µM), for the others: at the highest dose signal change, negative = less light; 410,000 tested, 1.2% active; active = well fitted falling curve with a large enough effect; inconclusive = small, poorly fitted or top-dose-only effect; inactive = no such curve, though single readings can be large or run the other way; tested in HEK293T cells; also: % is scaled to controls: 0 for no effect and ±100 for the full control effect; nearly all actives have a fitted effect of over 45% in size; luciferase light after 4 h
LASV entry inh – qHTS for Inhibitors of binding or entry into cells for Lassa Virus | Lassa virus pseudotype entry inhibition, cell reporter; control for the full effect not named in the record | Potency, µM (titrated, usually from 37.9 µM), inactives show at the highest dose activity change, negative = inhibition, actives largely listed as inhibitors | 300,000 tested, 1.2% active | AID 540256, 2011; active means well fitted inhibition curve with a large enough effect; inconclusive means small, poorly fitted or top-dose-only effect, or effect the other way; inactive means flat fitted curve, though single readings scatter; tested in HEK293 cells; also: % is scaled to controls: 0 for no effect and ±100 for the full control effect; nearly all actives have a fitted effect of over 50% in size; luciferase read-out
Numbers without * were called inactive; ? = inconclusive; / = no result given; & = joins results of further samples; [ ] = remark or other dose. Unless noted, calls follow the shape of the dose curve; as a rule, active means well fitted rising curve with a large enough effect; inconclusive means small, poorly fitted or top-dose-only effect; inactive means no such curve, though single readings can be large or run the other way. Potency is read from the fitted curve at half-maximal effect.

No.	smiles	Cruzain Triton	SARS PLpro yeast	Cruzain inh noDet	RE007 growth inh	NS1 inh	Marburg entry inh	StopGo reporter	LASV entry inh
1	Cn1cccc1/C=N/NC(=O)c1ccco1	/	1%	/	1%	/	1%[46.1 µM]	59%[activator]	2%
2	CCc1ccc(CNC(=O)CCn2c(=O)c3cccn3c3ccc(F)cc32)cc1	-5.7%	/	?	/	/	/	-2%	-26%[46.1 µM]
3	CCCCN(CC)C(=O)Cn1ncc2c3ccccc3n(CCC)c2c1=O	/	3%	/	-4%	2%	-25%&-25%	-25%&-13%	-7%
4	COc1cc(S(=O)(=O)NC2CCCCC2C)ccc1Cl (stereo not given)	-4.3%	-21%	-11%	0%	-106%	-3%	29%	-6%
5	NS(=O)(=O)c1ccc(NC(=O)c2ccc3c(c2)CCN3S(=O)(=O)c2ccccc2)cc1	-3.9%	-10%	-3%	10%	-3%	-3%&0%[46.1 µM]	-30%&-22%	-15%&-3%[46.1 µM]
6	Cc1ccc(C(=O)NCC(=O)OCC(=O)c2c(N)n(C)c(=O)n(C)c2=O)cc1C	/	0%	/	16%	/	16%	3%	-2%
7	CN1C(=O)C2C3c4ccccc4C(c4ccccc43)[C@@H]2C1=O (stereo not given in full)	/	-2%	/	4%	7%	/	-22%	/
8	COc1ccc(Nc2nc(C)cc(=O)[nH]2)c(OC)c1	-2.6%	10%	-5%	2%	4%	15%	/	6%
9	COc1ccc(-c2nnn(CC(=O)N(CC(=O)NC3CCCC3)c3ccccc3F)n2)cc1OC	/	1%	/	-21%	-8%	-26%	13%	?
10	CN(Cc1nc2ccccc2n1C)S(=O)(=O)c1ccc(F)cc1	0.2%	5%	5%	-11%	-5%	?	-20%	11%
11	NNC(=O)CSc1cccc2cccnc12	-1.6%	-11%	-6%	0%	21%	11%	-3%	?
12	CCOC(=O)Cn1nnc(-c2cc(OC)c(OC)c(OC)c2)n1	/	0%	/	-9%	/	-13%[46.1 µM]	8%	14%
13	Cc1cc(=O)n(CC(=O)N2CCN(c3ccc(F)cc3)CC2)c2c1c(C)nn2C	-3.0%	/	?	/	/	/	28µM*	?
14	O=C(Cn1cnc2ccccc2c1=O)NCCC(=O)Nc1ccc2c(c1)OCO2	/	-7%	/	-14%	/	?	-6%	19%[46.1 µM]
15	COc1ccc(C(=O)/C=C2/Sc3cc4c(cc3N2C)OCO4)cc1	-2.0%	4%	-16%	2%	6%	8%	3%	5%
16	Cc1ccc(CNC(=O)C2CCN(S(=O)(=O)N3CCC4(CC3)OCCO4)CC2)cc1	0.0%	-7%	8%	26%	-12%	22%&11%	-24%	2%&-8%
17	CCOC(=O)C1C(c2ccc(OC)c(OC)c2)c2c([nH][nH]c2=O)CC1(C)O (stereo not given)	/	0%	/	24%	1%	/	?	/
18	Cc1sc(N2CCN(S(=O)(=O)c3ccc4c(c3)NC(=O)CO4)CC2)nc1-c1ccccc1	/	-11%	/	6%	15%	?	-16%	?
19	COc1cccc(NC(=O)Cn2c(=O)n(CCCCC(=O)NCc3ccc4c(c3)OCO4)c(=O)c3ccccc32)c1	-3.5%	/	-20%	/	/	?	-6%	-1%[46.1 µM]
20	O=C1CSC(c2ccccc2O)N1Cc1ccccc1 (stereo not given)	/	0%	/	10%	-1%	-2%	-10%	/
21	Cc1cc(C)cc(NC(=O)N2CCC(C(N)=O)(N3CCCCC3)CC2)c1	-1.0%	/	-1%	/	/	-9%[46.1 µM]	-22%	6%[46.1 µM]
22	COCCSc1ccccc1C(=O)Nc1ccccc1C(C)C	/	-1%	/	0%	-4%	/	-18%	/
23	CC(C)(c1ccccc1)c1ccc(OCCCNCCO)cc1	1.8%	1%	4%	13%	-2%	?	-26%	?
24	O=C(Nc1cccnc1)c1ccc(NS(=O)(=O)c2cc([N+](=O)[O-])ccc2Cl)cc1	/	0%	/	0%	1%	/	2%	/

Pulled by compound from above (4):
No.	smiles	Cruzain Triton	SARS PLpro yeast	Cruzain inh noDet	RE007 growth inh	NS1 inh	Marburg entry inh	StopGo reporter	LASV entry inh
21	Cc1cc(C)cc(NC(=O)N2CCC(C(N)=O)(N3CCCCC3)CC2)c1	-1.0%	/	-1%	/	/	-9%[46.1 µM]	-22%	6%[46.1 µM]
12	CCOC(=O)Cn1nnc(-c2cc(OC)c(OC)c(OC)c2)n1	/	0%	/	-9%	/	-13%[46.1 µM]	8%	14%
10	CN(Cc1nc2ccccc2n1C)S(=O)(=O)c1ccc(F)cc1	0.2%	5%	5%	-11%	-5%	?	-20%	11%
9	COc1ccc(-c2nnn(CC(=O)N(CC(=O)NC3CCCC3)c3ccccc3F)n2)cc1OC	/	1%	/	-21%	-8%	-26%	13%	?

Next part
No.	smiles	Cruzain Triton	SARS PLpro yeast	Cruzain inh noDet	RE007 growth inh	NS1 inh	Marburg entry inh	StopGo reporter	LASV entry inh
25	CN1C(=S)SC(N(O)C(=O)NC2CCCCC2)C1(C)C (stereo not given)	-3.9%	-2%	4%	5%	-4%	-4%	29%	10%
26	COC(=O)c1ccc(C(=O)OC)c(NC(=S)N2CCN(c3ccc(F)cc3)CC2)c1	-4.6%	-4%	4%	1%	22%	?	-10%	0%
27	CC1=NCCN1CCNC(=O)Nc1ccc(F)cc1	/	1%	/	-7%	3%	7%[46.1 µM]	4%	2%[46.1 µM]
28	CN(C)C(=O)c1ccc(Nc2ncnc3sc4c(c23)CCCCC4)cc1	/	-11%	/	6%	-27%	?	8%	2%[46.1 µM]
29	Cc1ccccc1C(=O)N1CCN(c2ccc(NC(=O)c3ccc4c(c3)OCO4)cc2)CC1	/	0%	/	20%	3%	?	13µM*	?
30	COCCN(C(=O)COC(=O)/C(=C/c1ccccc1)NC(C)=O)c1c(N)n(Cc2ccccc2)c(=O)[nH]c1=O	/	-4%	/	-17%	-1%	1%	-28%	?
31	Cc1nc2c(N=Nc3ccccc3F)c(N)nn2c(N)c1C#N	/	1%	/	3%	-4%	?	-3%	-1%[46.1 µM]
32	CC(C)NC(=O)c1onc(CSc2cccc3ccccc23)c1C(=O)O	-3.1%	-4%	5%	13%	9%	/	-22%	/
33	CCCOc1ccccc1/C=C(\C#N)C(=O)Nc1cccnc1	/	1%	/	-14%	-6%	?	25%	3%[46.1 µM]
34	CCC(/C=N/NC(=O)C(=O)N/N=C/C(CC)CC)CC	-2.1%	-13%	?	-2%	10%	1%	0%	-2%
35	COc1ccc(Cl)cc1N1C(=O)CC(Sc2ccccc2N)C1=O (stereo not given)	/	1%	/	2%	-4%	?	14%	-17%
36	COc1cc(/C=N/NS(=O)(=O)c2ccc(C)c([N+](=O)[O-])c2)ccc1O	/	1%	/	12%	/	-4%[46.1 µM]	19%	7%

Continued (2 carried over from the part before).
No.	smiles	Cruzain Triton	SARS PLpro yeast	Cruzain inh noDet	RE007 growth inh	NS1 inh	Marburg entry inh	StopGo reporter	LASV entry inh
35	COc1ccc(Cl)cc1N1C(=O)CC(Sc2ccccc2N)C1=O (stereo not given)	/	1%	/	2%	-4%	?	14%	-17%
36	COc1cc(/C=N/NS(=O)(=O)c2ccc(C)c([N+](=O)[O-])c2)ccc1O	/	1%	/	12%	/	-4%[46.1 µM]	19%	7%
37	CCC(C)C(NC(=O)OC(C)(C)C)C(=O)NC(Cc1ccccc1)C(=O)OC (stereo not given)	-3.3%	-1%	-10%	7%	-7%	1%	0%	9%
38	Cc1ccc(NC(=O)N(O)C2CCCCC2C#N)cc1 (stereo not given)	/	/	/	-5%	/	25%	39%[activator]	10%[46.1 µM]
39	CC(C)CC(=O)N1CCN(C(=O)CCC2CCCC2)CC1	2.3%	-1%	4%	12%	-9%	?	-29%	0%
40	O=C(Nc1cccc(C(F)(F)F)c1)c1cc2nc(-c3ccco3)cc(C(F)(F)Cl)n2n1	-4.4%	/	20%	/	/	-10%[46.1 µM]	-20%	?
41	CC(=O)Cc1cc2cc([N+](=O)[O-])ccc2oc1=O	/	-1%	/	4%	1%	/	-7%	/
42	NS(=O)(=O)c1ccc(CCNC(=O)CSc2ccccc2)cc1	7.3%	-4%	5%	11%	5%	-3%	-4%	7%
43	CN(C)CCNc1nc2c(c(=O)[nH]c(=O)n2C)n1CCCc1ccccc1	1.2%	5%	5%	-12%	-6%	/	-15%	/
44	C=CCn1c(Cc2cccs2)nnc1SCC(=O)c1cccc(Br)c1	-7.1%	1%	-7%	6%	-33%	7%	-3%	0%
45	COc1ccc(CCNC(=O)CSCc2ccc([N+](=O)[O-])cc2)cc1OC	-4.6%	18%	-3%	-10%	-15%	?	0%	4%
46	Cc1c(C(=O)N2CCC(Cc3ccccc3)CC2)cccc1[N+](=O)[O-]	/	0%	/	4%	3%	?	?	-30%
47	COc1cc(CNCc2ccccn2)ccc1OCc1cccc(Cl)c1	1.3%	-8%	6%	-7%	2%	?	/	-2%
48	COc1ccc(CN2CCOCC2)cc1OC	6.5%	-12%	?	4%	1%	-1%	-18%	9%
49	Cc1cc(OCC(=O)NCCN2CCOCC2)cc(C)c1Br	0.4%	-7%	6%	-5%	2%	-1%	4%	-1%
50	Cn1c(=O)c2c(nc(NCc3ccc4c(c3)OCO4)n2Cc2ccccc2F)n(C)c1=O	-7.7%	0%	11%	3%	4%	-9%&-9%&-9%	-29%	?
51	CC(=O)N1CCN(c2ccc(NC(=O)c3ccc(N4CCCC4)c([N+](=O)[O-])c3)cc2Cl)CC1	1.2%	2%	13%	-4%	2%	?	/	?
52	COc1cccc(NC(=O)c2ccc3c(c2)N(CC(=O)N2CCCCC2)C(=O)C(C)(C)O3)c1	0.0%	3%	?	3%	-8%	?	3%	-4%
